Bioassay records: PubChem, Broad Institute
STAT3 binder = STAT3 (human) binding; P40763; Small molecule microarray, His-STAT3 binding, anti-His fluorescence; calls only; 17,000 tested, 0.2% active;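 active = compounds whose four printed spots each show fluorescence over background unusually high for their array block, chance value under 7%; compounds were printed on slides so no solution concentration is given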;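 note: about 2 pmol printed per array spot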
mut p53 SMM = mutant p53 (human) binding | small molecule microarray binding, anti-GST fluorescence | calls only | 17,000 tested, 0.4% active;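 active = compounds whose four printed spots each glow above background more than chance allows, each with a p-value under 7%; compounds were printed on slides so no solution concentration is given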;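 note: about 2 pmol printed per array spot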
ID4 binder = binders of human ID4 protein | P47928 | small molecule microarray, Flag-ID4 binding, fluorescence F/B | calls only | 31,000 tested, 1.2% active | AID 624137;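 active = spot signal over background at p below 0.07 in all four prints; compounds were printed on slides so no solution concentration is given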;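 note: a binder raises fluorescence above local background on the spot; about 2 pmol printed per array spot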
Target sequence (P47928 whole entry, looked up): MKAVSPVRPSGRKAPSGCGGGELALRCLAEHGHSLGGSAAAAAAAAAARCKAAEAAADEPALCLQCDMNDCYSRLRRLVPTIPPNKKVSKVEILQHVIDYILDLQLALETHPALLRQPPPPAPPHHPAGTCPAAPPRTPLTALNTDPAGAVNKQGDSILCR
Myc binder = binds human c-Myc on microarray; P01106; small molecule microarray, His-c-Myc binding, anti-His fluorescence; calls only; 17,000 tested, 1.5% active;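 active = spot fluorescence over background with P-value below 7% in all four replicate spots, showing protein binding; compounds were printed on slides so no solution concentration is given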;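 note: score is binary with 100 for all four spots passing and 0 otherwise; about 2 pmol printed per array spot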
Target sequence (P01106 whole entry, looked up): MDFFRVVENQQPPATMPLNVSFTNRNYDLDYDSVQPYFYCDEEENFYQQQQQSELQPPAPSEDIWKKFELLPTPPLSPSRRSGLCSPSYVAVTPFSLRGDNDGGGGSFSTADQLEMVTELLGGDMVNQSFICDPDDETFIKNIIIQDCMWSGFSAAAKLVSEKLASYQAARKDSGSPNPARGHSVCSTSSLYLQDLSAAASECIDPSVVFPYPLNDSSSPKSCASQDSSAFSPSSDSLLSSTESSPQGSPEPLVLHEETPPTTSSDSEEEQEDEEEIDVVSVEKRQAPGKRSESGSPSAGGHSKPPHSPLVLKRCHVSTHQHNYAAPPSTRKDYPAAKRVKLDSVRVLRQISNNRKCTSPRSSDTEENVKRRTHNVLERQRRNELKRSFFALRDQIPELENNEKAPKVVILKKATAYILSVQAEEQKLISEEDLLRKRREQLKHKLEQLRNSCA
Calls only; i = inactive; . = no result given; + = active, no number. Some of the compounds tested; rates above refer to the full screens.

SMILES	STAT3 binder	mut p53 SMM	ID4 binder	Myc binder
C[C@@H]1CN([C@@H](C)CO)C(=O)c2cc(NC(=O)c3ccncc3)ccc2O[C@H]1CN(C)C(=O)Nc1ccc2c(c1)OCO2	i	i	i	i
C[C@@H]1CCCCO[C@@H](CN(C)C(=O)c2ccncc2)[C@@H](C)CN([C@H](C)CO)C(=O)c2cc(NC(=O)Cc3ccccc3)ccc2O1	i	i	i	i
COc1ccc(S(=O)(=O)N(C)C[C@@H]2Oc3c(NC(=O)NC4CCCCC4)cccc3C(=O)N([C@H](C)CO)C[C@@H]2C)cc1	i	i	i	i
C[C@H](CO)N1C[C@H](C)[C@H](CN(C)C(=O)Nc2cccc3ccccc23)Oc2ccc(NC(=O)C3CC3)cc2C1=O	i	i	i	i
CCCC(O)C#Cc1cnc2c(c1)C(=O)N([C@H](C)CO)C[C@H](C)[C@H](CN(C)C(=O)Nc1cccc3ccccc13)O2 (stereo partly specified)	i	i	i	i
O=C(COc1ccc([N+](=O)[O-])cc1)Nc1ccc(N2CCN(C(=O)c3ccco3)CC2)cc1	i	i	i	i
C[C@H](CO)N1C[C@H](C)[C@@H](CN(C)Cc2ccc(C(F)(F)F)cc2)Oc2c(NS(=O)(=O)c3ccc(F)cc3)cccc2C1=O	i	i	i	i
C[C@@H]1CN([C@@H](C)CO)C(=O)c2cc(NC(=O)c3ccncc3)ccc2O[C@@H](C)CCCCO[C@H]1CN(C)C(=O)CCC(F)(F)F	i	i	i	i
C[C@H]1CN([C@@H](C)CO)C(=O)c2cc(NC(=O)Nc3ccc4c(c3)OCO4)ccc2O[C@@H]1CN(C)S(=O)(=O)c1ccc(F)cc1	i	i	i	i
Cc1cccc(NC(=O)CSc2nc3ccccc3c(=O)n2C)c1C	i	i	i	i
C[C@@H]1CCCCO[C@H](CN(C)C(=O)Nc2ccccc2)[C@@H](C)CN([C@@H](C)CO)C(=O)c2cc(NS(C)(=O)=O)ccc2O1	i	i	i	i
CNC[C@H]1Oc2ccc(NC(=O)CCC(F)(F)F)cc2CC(=O)N([C@@H](C)CO)C[C@H]1C	i	i	i	i
C#Cc1ccc([C@H]2C=C(C(=O)OCC=C)O[C@@H](OCC)[C@@H]2CCCO)cc1	i	i	i	i
C[C@H]1CN([C@@H](C)CO)C(=O)Cc2cc(NC(=O)Nc3ccccc3)ccc2O[C@@H]1CN(C)C(=O)Nc1ccc(C(F)(F)F)cc1	i	i	i	i
COc1ccc(CN(C)C[C@H]2Oc3c(NS(C)(=O)=O)cccc3C(=O)N([C@H](C)CO)C[C@H]2C)cc1	i	i	i	i

Compounds above that have a halogen (five):
SMILES	STAT3 binder	mut p53 SMM	ID4 binder	Myc binder
C[C@H](CO)N1C[C@H](C)[C@@H](CN(C)Cc2ccc(C(F)(F)F)cc2)Oc2c(NS(=O)(=O)c3ccc(F)cc3)cccc2C1=O	i	i	i	i
C[C@@H]1CN([C@@H](C)CO)C(=O)c2cc(NC(=O)c3ccncc3)ccc2O[C@@H](C)CCCCO[C@H]1CN(C)C(=O)CCC(F)(F)F	i	i	i	i
C[C@H]1CN([C@@H](C)CO)C(=O)c2cc(NC(=O)Nc3ccc4c(c3)OCO4)ccc2O[C@@H]1CN(C)S(=O)(=O)c1ccc(F)cc1	i	i	i	i
CNC[C@H]1Oc2ccc(NC(=O)CCC(F)(F)F)cc2CC(=O)N([C@@H](C)CO)C[C@H]1C	i	i	i	i
C[C@H]1CN([C@@H](C)CO)C(=O)Cc2cc(NC(=O)Nc3ccccc3)ccc2O[C@@H]1CN(C)C(=O)Nc1ccc(C(F)(F)F)cc1	i	i	i	i

In another format: 2 of the compounds above
SMILES | STAT3 binder | mut p53 SMM | ID4 binder | Myc binder
C[C@H]1CN([C@@H](C)CO)C(=O)Cc2cc(NC(=O)Nc3ccccc3)ccc2O[C@@H]1CN(C)C(=O)Nc1ccc(C(F)(F)F)cc1 | i | i | i | i
COc1ccc(CN(C)C[C@H]2Oc3c(NS(C)(=O)=O)cccc3C(=O)N([C@H](C)CO)C[C@H]2C)cc1 | i | i | i | i

The results go on:
SMILES	STAT3 binder	mut p53 SMM	ID4 binder	Myc binder
C[C@@H]1CCCCO[C@@H](CN(C)C)[C@@H](C)CN([C@H](C)CO)C(=O)c2cc(NC(=O)Nc3ccc(C(F)(F)F)cc3)ccc2O1	i	i	i	i
O=C(CSc1ccc([N+](=O)[O-])cn1)N1CCc2ccccc21	i	i	i	i
Cc1noc(C)c1NC(=O)N(C)C[C@@H]1Oc2ccc(NC(=O)Nc3cccc4ccccc34)cc2C(=O)N([C@H](C)CO)C[C@H]1C	i	i	i	i
O=C(CSc1nc2c(c(=O)n1Cc1ccco1)C1(CCCC1)Cc1ccccc1-2)c1cccs1	i	i	i	i
CNC[C@H]1Oc2c(N)cccc2C(=O)N([C@@H](C)CO)C[C@H]1C	i	i	i	i
C[C@H]1CN([C@@H](C)CO)C(=O)Cc2cc(NC(=O)Nc3ccc(C(F)(F)F)cc3)ccc2O[C@H]1CN(C)Cc1ccncc1	i	i	i	i
C[C@H](CO)N1C[C@H](C)[C@@H](CN(C)S(=O)(=O)c2cccs2)OCCCC[C@H](C)Oc2ccc(NS(C)(=O)=O)cc2C1=O	i	i	+	i
CC(C)(O)C1Oc2cc3occ(-c4ccc(O)cc4)c(=O)c3c(O)c2C1O (stereo unspecified)	i	i	.	i
O=C(C1=C[C@@H](c2coc3ccccc3c2=O)C[C@@H](OCc2ccc(CO)cc2)O1)N1CCOCC1	i	i	i	i
O=C(O)c1cc2ncc(CCO)cn2n1	i	i	i	i
C=CC(CO)NS(=O)(=O)c1ccc(Br)cc1 (stereo unspecified)	i	i	i	i
O=C(O)c1cccc(S(=O)(=O)NCC2CCCO2)c1 (stereo unspecified)	i	i	i	i
Cc1cccc(NC(=O)c2cc(NC(=O)CCC(=O)O)ccc2N2CCOCC2)c1	i	i	+	i
COc1ccc([C@@H]2C=C(C(=O)NCc3ccccc3)O[C@H](OCc3ccc(CO)cc3)C2)cc1	i	i	i	i
C[C@@H]1CCCCO[C@H](CN(C)C(=O)Nc2ccc3c(c2)OCO3)[C@H](C)CN([C@H](C)CO)C(=O)c2cc(NS(C)(=O)=O)ccc2O1	i	i	i	i
C[C@@H]1CN([C@@H](C)CO)C(=O)Cc2cc(NC(=O)Nc3ccccc3)ccc2O[C@H]1CN(C)C(=O)Nc1ccc(F)cc1	i	i	i	i
C[C@H]1CN([C@@H](C)CO)C(=O)c2cccc(NS(C)(=O)=O)c2O[C@H]1CN(C)C(=O)Nc1cccc2ccccc12	i	i	i	i
Cc1cc(Cn2ccc(C(F)(F)F)n2)c(C)c(-c2c(C#N)c(N)nc3c2CCCC3)c1	i	i	i	i
Cc1ccc(S(=O)(=O)Nc2ccc3c(c2)OCCO3)c(C)c1NS(C)(=O)=O	i	i	i	i
C[C@@H]1CN([C@H](C)CO)C(=O)c2cc(NC(=O)Nc3ccc(F)cc3)ccc2O[C@@H]1CN(C)C	i	i	i	i
CC(C)N(Cc1nc(-c2ccccc2)no1)C(=O)c1ccc(Br)o1	i	i	i	i
COC(=O)c1ccccc1NC(=O)CN1C(=O)c2cccc3cccc1c23	i	i	i	i
Cc1c(C(=O)NN2CCOCC2)nn(-c2ccc(Cl)cc2Cl)c1-c1ccc(I)cc1	i	i	i	i
C=C1C(=O)O[C@H]2C1CCC(=C)[C@@H]1C[C@H](OC(=O)C=C(C)C)C(=C)[C@@H]12 (stereo partly specified)	i	i	.	i
O=C(C1=C[C@@H](C2CC2)C[C@@H](OCc2ccc(CO)cc2)O1)N1CCCCCCC1	i	i	i	i
Ic1cccc(CSc2nnc(-c3ccncc3)o2)c1	i	i	.	i
Cc1noc(C)c1NC(=O)Nc1ccc2c(c1)C(=O)N([C@@H](C)CO)C[C@@H](C)[C@@H](CN(C)C(=O)CCCN(C)C)OCCCC[C@@H](C)O2	i	i	i	i
CNC[C@@H]1Oc2ccc(NC(=O)CCN3CCOCC3)cc2C(=O)N([C@@H](C)CO)C[C@H]1C	i	i	i	i
C[C@@H]1CCCCO[C@@H](CN(C)C)[C@@H](C)CN([C@H](C)CO)C(=O)c2cc(NS(=O)(=O)c3cn(C)cn3)ccc2O1	i	i	i	i
CC1CC(=O)c2c(ccc3c2C(=O)c2c(O[C@@H]4O[C@@H](C)[C@H](O)[C@@H](O)[C@H]4O)cccc2C3=O)C1 (stereo partly specified)	i	i	i	i
C[C@@H]1CCCCO[C@H](CN(C)C(=O)CCCN(C)C)[C@H](C)CN([C@@H](C)CO)C(=O)c2cc(NS(=O)(=O)c3ccccc3)ccc2O1	i	i	i	i
O=C(NCc1cccnc1)c1ccc2c(c1)C(=O)N(CC1CCCO1)C2=O (stereo unspecified)	i	i	i	i
C[C@H]1CCCCO[C@@H](CN(C)C)[C@@H](C)CN([C@@H](C)CO)C(=O)c2cc(NC(=O)CCC(F)(F)F)ccc2O1	i	i	i	i
COc1ccccc1NC(=S)NCc1ccc(S(N)(=O)=O)cc1	i	i	i	i
Cc1noc(C)c1NC(=O)N(C)C[C@@H]1OCCCC[C@@H](C)Oc2ccc(NS(=O)(=O)c3c(C)noc3C)cc2C(=O)N([C@H](C)CO)C[C@H]1C	i	i	.	i
CN1CCCC(CC2c3ccccc3Sc3ccccc32)C1 (stereo unspecified)	i	i	i	i
COc1ccc(S(=O)(=O)N(C)C[C@@H]2Oc3ccc(NC(=O)Cc4ccccc4)cc3CC(=O)N([C@@H](C)CO)C[C@@H]2C)cc1	i	i	i	i
C[C@@H]1CCCCO[C@H](CN(C)C(=O)Nc2ccccc2)[C@H](C)CN([C@H](C)CO)C(=O)c2cc(NC(=O)C3CCCCC3)ccc2O1	i	i	i	i
COc1cc(O)c2c(=O)c(OC3OC(CO[C@@H]4O[C@@H](C)[C@H](O)[C@@H](O[C@@H]5O[C@@H](C)[C@H](O)[C@@H](O)[C@H]5O)[C@H]4O)C(O)C(O)C3O)c(-c3ccc(O)cc3)oc2c1 (stereo partly specified)	i	i	i	i
C[C@@H]1CN([C@H](C)CO)C(=O)c2cc(NC(=O)NC3CCCCC3)ccc2O[C@@H]1CN(C)C(=O)Nc1ccc2c(c1)OCO2	i	i	i	i
Cc1cc(Cl)cc(Br)c1OCCCNCC(C)O (stereo unspecified)	i	i	i	i
N#C/C(=C\c1ccc(O)c(O)c1)C(=O)c1ccc(O)c(O)c1	i	i	i	i
CC(=O)Nc1ccccc1NC(=O)COc1ccc(Cl)c(C)c1	i	i	i	i
C[C@H](CO)N1C[C@H](C)[C@@H](CN(C)C(=O)Nc2ccc(C(F)(F)F)cc2)Oc2c(NC(=O)c3ccncc3)cccc2C1=O	i	i	i	i
C[C@@H]1CN([C@H](C)CO)C(=O)c2cccc(NC(=O)C3CCOCC3)c2O[C@H]1CN(C)C(=O)Nc1ccccc1	i	i	i	i
C[C@H]1CCCCO[C@@H](CN(C)S(=O)(=O)c2ccccc2)[C@@H](C)CN([C@@H](C)CO)C(=O)c2cc(NS(=O)(=O)c3ccccc3)ccc2O1	i	i	i	i
CC1=CCC(C(C)(C)O[C@@H]2O[C@H](COC(=O)c3cc(O)c(O)c(O)c3)[C@@H](O)[C@H](O)[C@H]2O)CC1 (stereo partly specified)	i	i	i	i
Cc1ccc(-c2nn(CC(=O)Nc3ccc(C)cc3C)c(=O)c3ccccc23)cc1	i	i	i	i
Cc1ccc(OCC(=O)Nc2ccccc2N2CCOCC2)cc1	i	i	i	i
Cc1ccc(S(=O)(=O)Nc2cccc3c2O[C@@H](CN(C)C(=O)NC(C)C)[C@@H](C)CN([C@H](C)CO)C3=O)cc1	i	i	.	i
Cc1cnc(SCc2cnc(C)nc2N)nc1	i	i	i	i
CCc1nc(CNC(=O)c2cc(OC)c(OC)c(OC)c2)no1	i	i	i	i
O=S(=O)(Nc1ncccn1)c1ccc(NS(=O)(=O)c2cc(Cl)ccc2Cl)cc1	i	i	i	i
COc1ccccc1NC(=O)c1cnc(Nc2nc3ccccc3s2)nc1C	i	i	i	i
CCOc1ccc(C(C)=O)cc1Cc1c(O)nc(N)[nH]c1=O	i	i	i	i
CCn1c(SCC(=O)N2CCCc3ccccc32)nnc1-c1cccs1	i	i	i	i
O=C(O)c1cccc(S(=O)(=O)Nc2ccc(O)cc2Sc2nc3ccccc3s2)c1	i	i	i	i
C[C@H]1CN([C@@H](C)CO)C(=O)CCCn2nncc2CO[C@@H]1CN(C)C(=O)c1ccccc1	i	i	i	i
CCO[C@@H]1OC(C(=O)Nc2ccccc2)=C[C@H](c2coc3ccccc3c2=O)[C@H]1CCCO	i	i	i	i
C[C@@H]1CN([C@H](C)CO)C(=O)Cc2cc(NC(=O)Cn3cnnn3)ccc2O[C@H]1CN(C)C(=O)Nc1cccc2ccccc12	i	i	i	i

(more compounds)
SMILES	STAT3 binder	mut p53 SMM	ID4 binder	Myc binder
COc1ccc(CN(C)C[C@H]2Oc3c(NC(=O)c4ccc(-c5nccs5)cc4)cccc3C(=O)N([C@@H](C)CO)C[C@@H]2C)cc1	i	i	i	i
CNC[C@@H]1OCCCC[C@@H](C)Oc2ccc(NS(=O)(=O)c3c(C)noc3C)cc2C(=O)N([C@@H](C)CO)C[C@H]1C	i	i	i	i
COc1ccc(N2C(=O)CC(SCC(=O)Nc3c(C)cccc3C)C2=O)cc1 (stereo unspecified)	i	i	+	i
COC(=O)C1=C/c2ccccc2C(C)N(Cc2ccc(OC)cc2)/C=C\1C(=O)OC (stereo unspecified)	i	i	i	i
Cn1cc(C(c2ccc([N+](=O)[O-])o2)c2cn(C)c3ccccc23)c2ccccc21	i	i	i	i
Nc1cc(=O)[nH]c(SCC(=O)Nc2ccccc2)n1	i	i	i	i
